# PV pol inh = inhibitors of poliovirus RNA polymerase binding and polymerization | P03300 | poliovirus polymerase elongation, fluorescence polarization; stronger effect = lower value | % elongation, % (compound at 16.7 µg/mL) | actives 0.66% (n = 150,000); in the data active = % elongation below about 90%; note: some results filed as inactive read as strong as hits
# Mtb MenB inh = inhibitors of Mycobacterium tuberculosis MenB enzyme; P9WNP5; MenB enzyme assay, absorbance read-out; some hits fall short of the stated cut; inhibition, %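 (about 12 µg/mL by stock and volumes)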; actives 0.43% (n = 100,000); AID 540299;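 active = mean of two replicates above 30%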;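 note: 0% = no compound and 100% = wells with inactive enzyme; the first replicate is given; strong numbers were not always called active; inactives centre near -10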
# MbtI inh = MbtI salicylate synthase inhibition. P9WFX0. purified MbtI enzyme, fluorescence intensity read-out. inhibition, %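 (about 17 µg/mL by stock and volumes)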. actives 0.89% (n = 100,000). AID 493033;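 active = above 50% in both replicates, above 80% if mildly self-fluorescent; inactive = the rest, strongly fluorescent compounds included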;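 note: 0% = mean of negative and 100% = mean of positive controls; one replicate is shown; some compounds called inactive have numbers as strong as hits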
# Target sequence (P9WFX0 whole entry, looked up): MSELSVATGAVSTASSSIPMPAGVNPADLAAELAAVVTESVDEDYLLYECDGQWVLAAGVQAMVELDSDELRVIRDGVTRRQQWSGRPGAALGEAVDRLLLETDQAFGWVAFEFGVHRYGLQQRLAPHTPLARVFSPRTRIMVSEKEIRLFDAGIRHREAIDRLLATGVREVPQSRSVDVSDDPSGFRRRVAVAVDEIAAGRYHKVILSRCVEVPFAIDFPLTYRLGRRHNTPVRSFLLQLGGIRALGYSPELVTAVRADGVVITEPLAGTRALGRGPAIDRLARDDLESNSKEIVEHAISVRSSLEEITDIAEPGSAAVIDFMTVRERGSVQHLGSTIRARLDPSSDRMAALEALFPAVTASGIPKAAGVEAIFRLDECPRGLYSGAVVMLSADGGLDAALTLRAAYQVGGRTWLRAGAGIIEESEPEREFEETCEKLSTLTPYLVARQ
# PV pol inh intensity = recorded beside PV pol inh, whose call it bears; % elongation; measured here: total intensity read-out; formula for this scale not given here;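 total fluorescence in place of polarization; lower means less elongation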
# The depositor's hits bear a star; i = inactive; nt = no result given.
# Letters: A = PV pol inh; B = PV pol inh intensity; C = Mtb MenB inh; D = MbtI inh
SMILES: O=C(NCC1CCCO1)C12CC3CC(CC(C3)C1)C2 (stereo not given)
  A = 103	B = 99	C = 28	D = 2
SMILES: COc1ccc(CNCC(O)COCc2cccs2)cc1 (stereo not given)
  A = 105	B = 111	C = 3	D = -3
SMILES: O=C(O)c1ccccc1CSc1nc2cc(Cl)ccc2o1
  A = 94	B = 97	C = 14	D = 21
SMILES: CC1(C)CC(NCc2ccco2)CC(C)(C)N1
  A = 104	B = 106	C = -22	D = nt
SMILES: O=C(NC1CC1)c1ccc(CSCc2cccc(F)c2)o1
  A = 102	B = 99	C = 7	D = -1
SMILES: CCOC(=O)c1c(-c2ccccc2)oc2c(-c3ccccc3)cc(O)cc12
  A = 100	B = 106	C = -4	D = i
SMILES: CCCc1cc(CN)on1
  A = 99	B = 102	C = 12	D = -5
SMILES: N#CC(C#N)=Cc1cn(-c2ccccc2)nc1-c1ccc2c(c1)OCCO2
  A = 98	B = 107	C = 1	D = -8
SMILES: CCOC(=O)/C(=C(/C)N)C1CC(=O)N(c2ccc(C(=O)OCC)cc2)C1=O (stereo not given)
  A = 101	B = 108	C = 6	D = -7
SMILES: COc1ccc(OC)c(NC(=O)c2ccc(N3C(=O)CCC3=O)cc2)c1
  A = 101	B = 99	C = 0	D = 15

# Going on with the list:
# Letters: A = PV pol inh; B = PV pol inh intensity; C = Mtb MenB inh; D = MbtI inh
SMILES: COc1ccc2nc(-c3nc4ccccc4s3)sc2c1
  A = nt	B = nt	C = -22	D = -170
SMILES: O=C1NC2(CCN(C(=O)c3ncoc3-c3ccccc3)CC2)Oc2ccccc21
  A = 106	B = 106	C = -5	D = -12
SMILES: CC1CSc2nc3sc4c(c3c(=O)n21)CCCC4 (stereo not given)
  A = 100	B = 99	C = -6	D = 31
SMILES: NC(=NS(=O)(=O)c1ccccc1)c1ccccc1F
  A = 104	B = 109	C = nt	D = -14
SMILES: CSc1ccc(-c2nc3ccc(C)cn3c2NC2CCCCC2)cc1
  A = 100	B = 98	C = -17	D = 12
SMILES: O=C(/C=C/c1ccco1)NC(=S)NC1CCCCC1
  A = 103	B = 117	C = -7	D = 25
SMILES: O=C1CCC(C(=O)NN2C(=O)c3cccc4cccc(c34)C2=O)=NN1
  A = 102	B = 105	C = -48	D = 103
SMILES: Cc1ccc(CNC(=O)CCN2N=C(c3ccccc3)CCC2=O)cc1
  A = 101	B = 104	C = -5	D = 3
SMILES: CCCc1nn2cc(-c3ccccc3)nc2s1
  A = 101	B = 101	C = 6	D = -15
SMILES: FC(F)(F)c1ccc(-c2nc(-c3cc(-c4ccccc4)no3)cs2)cc1
  A = 102	B = 95	C = -19	D = -8

# Profiles, looked up by structure.
# Results for Cc1ccc(CNC(=O)CCN2N=C(c3ccccc3)CCC2=O)cc1 → PV pol inh: 101; PV pol inh intensity: 104; Mtb MenB inh: -5; MbtI inh: 3
# Results for O=C1CCC(C(=O)NN2C(=O)c3cccc4cccc(c34)C2=O)=NN1 → PV pol inh: 102; PV pol inh intensity: 105; Mtb MenB inh: -48; MbtI inh: 103

# Part of the list above in order of heavy-atom count, highest first.
# Letters: A = PV pol inh; B = PV pol inh intensity; C = Mtb MenB inh; D = MbtI inh
SMILES: O=C1NC2(CCN(C(=O)c3ncoc3-c3ccccc3)CC2)Oc2ccccc21
  A = 106	B = 106	C = -5	D = -12
SMILES: O=C1CCC(C(=O)NN2C(=O)c3cccc4cccc(c34)C2=O)=NN1
  A = 102	B = 105	C = -48	D = 103
SMILES: O=C(/C=C/c1ccco1)NC(=S)NC1CCCCC1
  A = 103	B = 117	C = -7	D = 25

# Next part:
# Letters: A = PV pol inh; B = PV pol inh intensity; C = Mtb MenB inh; D = MbtI inh
SMILES: Cc1cc(C)n(-c2ccc(C(=O)C(C#N)c3nc4ccccc4n3C)cc2)n1 (stereo not given)
  A = 102	B = 97	C = nt	D = -2
SMILES: O=C(On1c(-c2ccccc2)cc2ccccc21)c1cccnc1Cl
  A = 101	B = 100	C = nt	D = -8
SMILES: Cc1ccc(C(=O)Cn2nnc(-c3ccc(N)cc3)n2)cc1
  A = 103	B = 101	C = -38	D = -16
SMILES: CC1=CC(C)(C)N(C(=O)c2ccc(F)cc2)c2cc3c(cc21)OCO3
  A = 102	B = 107	C = -7	D = -6
SMILES: CC(C)S(=O)(=O)c1nc2ccccc2n1CC(=O)N1CCCc2ccccc21
  A = 107	B = 97	C = -21	D = 14
SMILES: C[C@H]1[C@H](NC(=O)/C(=N\OC(C)(C)C(=O)O)c2csc(N)n2)C(=O)N1S(=O)(=O)O
  A = 99	B = 101	C = -5	D = -2
SMILES: Clc1ccccc1CSc1nc(NCC2CCCO2)c2ccccc2n1 (stereo not given)
  A = 104	B = 108	C = -20	D = 2
SMILES: Cc1cc(C(F)(F)F)nn1CC(=O)NCc1cccs1
  A = 101	B = 108	C = 0	D = nt

# Laid out differently: 2 of the compounds above.
smiles | PV pol inh | PV pol inh intensity | Mtb MenB inh | MbtI inh
Cc1cc(C(F)(F)F)nn1CC(=O)NCc1cccs1 | 101 | 108 | 0 | nt
Cc1ccc(C(=O)Cn2nnc(-c3ccc(N)cc3)n2)cc1 | 103 | 101 | -38 | -16

# Screening data as filed in PubChem BioAssay.
